# YopH inh – inhibitors of Yersinia enterocolitica YopH tyrosine phosphatase. fluorescence Ex485/Em525. inhibition, %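 (about 10 µM by stock and volumes)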. hit rate 0.16% among 140,000. AID 898;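 active means inhibition of 50% or more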;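 further: controls were vehicle for no effect and minimum signal wells for full effect; inactives centre near -20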
# Mtb growth – M. tuberculosis H37Rv growth inhibitors, H37Rv strain (AID 1626) | M. tuberculosis H37Rv growth inhibition; higher % means a stronger effect | hit rate 0.95% among 220,000 | inhibition, % at 10 µM, or IC50 in µM where a hit was titrated;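 active means confirmed in a dose series; inconclusive means inhibition above 80% but not taken into the dose series; inactive means below 80% or under 30% at every dose of the series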;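 further: bacteria incubated seven days before Alamar blue readout; 0% = bacteria only wells and 100% = bacteria with antibiotic wells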
# RecA splice inh – Mtb RecA intein splicing inhibition; hit rate 0.75% among 290,000; P9WHJ3; inhibition, %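 (about 9 µM by stock and volumes)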; cell-free RecA intein splicing, fluorescence; in the data active means inhibition above about 30%; inconclusive means no clear call, values can overlap the other calls;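 further: 0% = vehicle wells and 100% = reference inhibitor control wells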
# Target sequence (P9WHJ3 whole entry, looked up, canonical isoform): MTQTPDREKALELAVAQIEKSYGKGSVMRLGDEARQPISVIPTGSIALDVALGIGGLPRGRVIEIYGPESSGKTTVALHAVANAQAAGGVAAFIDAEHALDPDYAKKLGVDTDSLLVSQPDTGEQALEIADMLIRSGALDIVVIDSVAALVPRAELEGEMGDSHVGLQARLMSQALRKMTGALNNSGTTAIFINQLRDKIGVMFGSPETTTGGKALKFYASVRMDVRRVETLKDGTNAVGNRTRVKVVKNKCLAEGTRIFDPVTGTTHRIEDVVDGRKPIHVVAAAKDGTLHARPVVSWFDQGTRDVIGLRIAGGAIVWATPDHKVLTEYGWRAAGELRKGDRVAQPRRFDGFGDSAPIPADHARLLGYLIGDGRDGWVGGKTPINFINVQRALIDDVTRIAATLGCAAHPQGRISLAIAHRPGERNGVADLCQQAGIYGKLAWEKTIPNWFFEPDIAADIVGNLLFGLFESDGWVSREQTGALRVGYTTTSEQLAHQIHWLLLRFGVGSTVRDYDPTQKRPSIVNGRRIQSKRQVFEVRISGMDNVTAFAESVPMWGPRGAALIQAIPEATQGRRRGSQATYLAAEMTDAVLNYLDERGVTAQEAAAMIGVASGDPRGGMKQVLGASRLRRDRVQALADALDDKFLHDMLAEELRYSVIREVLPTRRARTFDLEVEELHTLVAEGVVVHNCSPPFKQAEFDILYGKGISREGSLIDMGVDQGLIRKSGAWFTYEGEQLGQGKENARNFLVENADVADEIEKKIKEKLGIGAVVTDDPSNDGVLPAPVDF
# Mtb betalactam – beta-lactam sensitization of Mtb H37Rv; M. tuberculosis H37Rv growth with meropenem, percent inhibition; hits of this screen are not shown here; inhibition, % at 25 µM; hit rate 0.27% among 330,000;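 active means about 74% or more and at least 40 points above the plate without the antibiotic, then above 30% in a dose series; inconclusive means first-round hits that could not be retested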;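 further: growth measured after seven days incubation then overnight dye step; 0% = bacteria only wells and 100% = bacteria with antibiotic; twin plates without the antibiotic show which effects depend on it; some results filed as inactive read as strong as hits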
# Arbovirus inh – antivirals against arbovirus infection. AID 1251. inhibition, % at 10 µM. arbovirus infection cell-based antiviral screen. hit rate 0.37% among 200,000;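 active means inhibition from about 30%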;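 further: bluetongue infection of BSR cells; cell survival read as ATP light after 72 h; 0% = infected wells without compound and 100% = uninfected wells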
# Arbovirus inh repeat – further read-out of Arbovirus inh, marked with its call; inhibition, %; measured here: 10K subset replicate screen; many hits read low in the repeat;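 first of two repeat runs on a subset; 0% = infected and 100% = uninfected wells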
# Active calls of the source: *; i = inactive; u = inconclusive; x = no result given. Not all compounds are listed. The share of hits here may be higher or lower than overall.
SMILES,YopH inh,Mtb growth,RecA splice inh,Mtb betalactam,Arbovirus inh,others
Cc1cccc(NC(=O)Cn2cnc3sc(C)c(S(=O)(=O)N4CCC(C)CC4)c3c2=O)n1,2,-1%,-0.7,-5,-4,Arbovirus inh repeat=-3
CCOC(=O)/C=C1\NC2(CCCCC2)Cc2cc(OC)c(OC)cc21,-32,-4%,-0.7,3,x,
Cc1cnc(NC(=O)[C@H](C)N2C(=O)C3CCCCC3C2=O)s1 (some centres undefined),x,-6%,-1.5,-10,26,
CN=C1S/C(=C\c2c(OC)cc(OC)cc2OC)C(=O)N1C,x,x,-2.4,4,x,
COc1ccc(Nc2cc(C)c3cc([N+](=O)[O-])ccc3n2)cc1,x,x,6.5,16,x,
Cc1cccc(C)c1OCC(O)CN (centres undefined),-1,-11%,-0.6,-6,17,
Cc1c(NC(=O)CSc2nnnn2Cc2ccccc2)c(=O)n(-c2ccccc2)n1C,-34,-3%,-0.2,4,-1,
Cc1nnc(-c2ccccc2)o1,x,-3%,-2.2,0,x,
Cc1cccc(Nc2cc(C)nc3ccccc23)c1,x,x,2.0,5,x,
COc1ccc(NC(=O)CCSc2ccc(F)cc2)cc1,x,76%,1.3,76,-9,

# Next section, starting with the last two of the part before.
SMILES,YopH inh,Mtb growth,RecA splice inh,Mtb betalactam,Arbovirus inh,others
Cc1cccc(Nc2cc(C)nc3ccccc23)c1,x,x,2.0,5,x,
COc1ccc(NC(=O)CCSc2ccc(F)cc2)cc1,x,76%,1.3,76,-9,
COc1ccc(S(N)(=O)=O)cc1C(N)=O,x,4%,-1.5,0,-3,
CCN(c1ccccc1)S(=O)(=O)c1ccc(OC)c(NC(=O)CNC)c1,x,-3%,-2.0,-10,-14,
O=C(CN1C(=O)COc2ccccc21)N1CCC2(CC1)OCCO2,x,x,-0.1,4,x,
CC(=O)c1cc(-c2ccccc2)n(CCC(=O)NC2CCCCC2)c1C,-27,-1%,-2.1,8,3,
CCOC(=O)c1ccccc1NC(=O)COc1cc(=O)n(CC)c2ccccc12,-7,1%,-2.8,11,-4,
N/C(CSc1ccccn1)=N\OCc1c(Cl)cccc1Cl,x,-1%,3.6,-4,x,
Cc1ccccc1Nc1cc(C)c2c(O)cccc2n1,-22,x,11,-3,-34,
CCOc1ccc(-n2nc3ccc(N)cc3n2)cc1,x,x,0.5,25,x,
CCOC(=O)c1c(C)n(CC(O)CN(CC)CC)c2cc(Br)c(OC)cc12 (centres undefined),x,-7%,-1.1,-7,-8,
COC(=O)c1c(NC(=O)CN2C(=O)NC(CCc3ccccc3)C2=O)sc2c1CCCCC2 (centres undefined),-18,5%,3.0,-4,7,
COc1ccc(OC)c(NC(=O)C(=O)c2cn(CC(=O)N3CCCC3)c3ccccc23)c1,x,x,1.5,-2,x,
CCOc1ccc(S(=O)(=O)NCCC(=O)NCC(c2ccc(F)cc2)N2CCOCC2)cc1 (centres undefined),x,x,-4.7,-2,x,
CC(C)(C)C(=O)Nc1cc2c3c(c1)CC(=O)N3CCC2,x,x,7.3,-3,x,
CC(C)(C)c1ccc(C(=O)Nc2nnc(Cc3c[nH]c4ccccc34)s2)cc1,-22,15%,-0.2,5,-25,
COc1ccc(C(=O)Nn2c(SCC(=O)NC3CCCC3)nc3ccccc3c2=O)cc1,19,-17%,-0.9,-6,2,
Cc1cccc(C)c1NC(=S)NC(=O)c1ccccc1F,-14,7%,8.8,-1,13,
Cc1cc(C(=O)OCC(=O)Nc2cccc(S(=O)(=O)N(C)C)c2)c2ccccc2n1,x,8%,1.3,-4,6,
O=C(c1cccc(OC2CCN(C3CCCC3)CC2)c1)N1CCCCCCC1,x,10%,0.0,2,-14,
CCC(C)(C)NC(=O)/C=C/c1ccccc1[N+](=O)[O-],x,2%,-1.2,1,3,
CCOC(=O)c1sc(NC(=O)c2ccco2)c(C#N)c1C,-14,7%,-4.1,3,-6,
COc1ccc(C(=O)NNC(=O)OC(C)(C)C)cc1,x,0%,1.6,-2,x,
CC(C)(c1ccccc1)c1ccc(OCC(O)CNC2CCN(Cc3ccccc3)CC2)cc1 (centres undefined),x,4.5µM*,8.5,100,-29,
Cc1ccc(S(=O)(=O)N(CC(=O)NCc2cccnc2)C2CCCCC2)cc1,x,-10%,0.1,-2,0,
CCOC(=O)/C=C/C(=O)N1CCc2ccccc21,-7,-19%,-14,-7,12,
CC(=O)c1c(-c2ccccc2)c2ccccc2[nH]c1=O,x,-7%,-1.1,-6,-3,
O=c1oc2cccnc2n1CCS(=O)(=O)c1ccc(F)cc1,x,-14%,-0.5,-3,x,
CC(C)(C)NC(=O)Cn1cnc2cc([N+](=O)[O-])ccc2c1=O,x,5%,-5.9,-10,1,
CC(=O)Nc1ccc(NC(=O)C(C)OC(=O)CC2CCCC2)cc1 (centres undefined),x,x,-0.8,0,x,
Cc1ccc(S(=O)(=O)N2CCC3(CC2)OCCO3)s1,x,x,0.1,0,x,
Cc1cc(NC(=S)N(CCN2CCOCC2)Cc2ccccc2F)ccc1Cl,x,-2%,0.2,-1,4,
Cc1cccc(N(C(=O)Nc2ccc(Cl)cc2)C2=NCC(C)S2)n1 (centres undefined),x,3%,0.5,-3,-7,
Cc1cccc(CC(=O)N2CCC(N3CCC(C(=O)N4CCOCC4)CC3)CC2)c1,x,6%,-2.0,-4,1,
O=C1NC(=O)N(Cc2ccco2)C(=O)/C1=C/C=C/c1ccco1,x,2%,-0.3,6,x,
O=C(NC1CCN(C(=O)Nc2ccccc2)CC1)C1CCCCC1,-50,-11%,-3.7,4,-1,
CCN(CC)S(=O)(=O)c1cc(C)ccc1NC(=S)Nc1cccnc1,x,-5%,5.1,2,-25,
O=C(NCCCn1ccnc1)C(=O)NC1CCCCC1,x,1%,-2.2,1,5,
COc1ccc(N(C)S(=O)(=O)c2ccc3c(c2)NC(=O)CO3)c(OC)c1,x,x,-0.3,0,x,
O=C(Cn1cncn1)c1ccccc1,x,-7%,-1.5,5,x,
C[C@@H](NC(=O)[C@@H]1Cc2ccccc2CN1)C(=O)Nc1ccc2c(c1)OCO2,x,x,21,4,x,
O=C(NCc1ccc[n+](CCCCS(=O)(=O)[O-])c1)c1ccc(OC(F)F)cc1,x,6%,0.6,-1,7,
CCOc1ccccc1NC(=O)Nc1ccc(OC)nc1,x,x,3.6,-3,x,
CC1CCc2c(nc3ncnn3c2NCCN(C)C)C1 (centres undefined),x,-2%,0.9,-4,10,
CC(=O)c1ccccc1Oc1ncnc(N)c1[N+](=O)[O-],x,x,0.3,-3,x,
CCOC(=O)/C=C1\SCC(=O)N1CC(O)CN1C(=O)CS/C1=C\C(=O)OCC,-11,-7%,-3.0,-5,8,
O=C1C2C(C(=O)N1Cc1cccnc1)C1C=CC2C12CC2 (centres undefined),6,-6%,0.3,-2,1,
O=C(Nc1c(-c2ccccc2)nc2c(Br)cc(Br)cn12)c1ccco1,-38,-9%,-1.3,-2,-3,
CCOC(=O)Nc1ccc2c(c1)nc(CN1CCCCC1)n2C,x,10%,-0.4,4,-2,
CN1CCc2c([nH]c3ccccc23)C1,x,1%,-1.8,-8,-4,
O=C(N/C(=C\c1ccccc1)C(=O)N1CCOCC1)c1ccccc1Br,x,x,-3.5,-5,x,
Cc1ccc(/C=N/NC(=O)c2nnn(-c3nonc3N)c2C(C)C)s1,x,x,0.6,-2,x,
# (listing goes on)
SMILES,YopH inh,Mtb growth,RecA splice inh,Mtb betalactam,Arbovirus inh,others
CC(C)CCn1nnnc1CN1CCN(C(c2ccccc2)c2ccccc2)CC1,x,31%,16,10,-17,
Cc1ccc(C(=O)OCC(=O)NC(=O)c2ccc(C(C)(C)C)cc2)c(O)c1,x,x,-4.0,4,x,
COc1ccc(-n2c(SCC(=O)Nc3nccs3)nnc2-c2ccccc2)cc1,-9,-3%,-0.6,2,-9,
O=c1cc(-c2ccccc2[N+](=O)[O-])oc2ccccc12,x,4%,-0.7,-7,-22,
CC(C)CCNC(=O)CN(C(=O)CCC(=O)Nc1nccs1)c1ccc2c(c1)OCCO2,x,x,-2.0,1,x,
CCCCn1c(N)c(N(CC(C)C)C(=O)c2ccc(C)c(S(=O)(=O)N3CCCCC3)c2)c(=O)[nH]c1=O,x,x,1.7,-8,x,
OC1(c2ccccc2)c2ccccc2-c2ncccc21 (centres undefined),x,5%,1.5,-3,7,
O=C(NCc1ccc(Cl)cc1)C1CCN(S(=O)(=O)c2cc([N+](=O)[O-])ccc2Cl)CC1,-26,7%,-1.7,2,-12,
Cc1cccc(NC(=O)CN2C(=O)NC(Cc3ccccc3)C2=O)c1 (centres undefined),-27,3%,4.7,-1,2,
CCc1ccc(C(=O)OCC(=O)Nc2cccc(S(=O)(=O)NC3=NCCCCC3)c2)cc1,-21,5%,1.4,5,10,
Cc1oc(-c2ccc(Cl)cc2)nc1CS(=O)CC(=O)NC1CCCC1 (centres undefined),x,x,-1.5,-5,x,
COc1ccc(Br)cc1CN1CCN(C(=O)Cc2ccccc2)CC1,15,-2%,0.1,-13,0,
CC1=NN(c2ccc(C)c(C)c2)C(=O)/C1=C\C=C\c1ccc([N+](=O)[O-])o1,x,u,12,100,-3,
O=C1c2ccsc2SCCN1Cc1ccccc1Cl,-21,9%,2.8,-1,3,
O=C(NNc1ccccc1)Nc1ccccc1F,x,x,-1.2,67,x,
O=S(=O)(Nc1cccc(-c2ccc(N3CCCCCC3)nn2)c1)c1ccc(F)cc1,x,x,10,15,x,
CCc1cccc(CC)c1NC(=S)N1CC2CC(C1)c1cccc(=O)n1C2 (centres undefined),2,-5%,1.6,-5,-1,
CCN(CC)CC(=O)Nc1c(Br)ccc2c1OCO2,-18,-6%,0.3,-3,1,
CCn1cc(C(=O)O)c(=O)c2cnc(N3CCN(C(=S)Nc4ccccc4)CC3)nc21,x,1%,-4.2,17,x,
Nc1cccc2c1C(=O)N(Cc1cccc(Cl)c1)C2=O,x,15%,i,8,-6,
CC1CCc2c(cnc3ncnn23)C1 (centres undefined),x,4%,-0.5,0,x,
COC(=O)COc1ccc(Oc2cc(C)nc(SC)n2)nn1,-15,-7%,-2.6,-10,2,
Cc1cc(S(=O)(=O)Cc2noc(-c3c(C)noc3C)n2)c(C)cc1Cl,x,-13%,1.7,-1,x,
O=C(N/N=C/c1ccc([N+](=O)[O-])o1)c1cc2c(ccc3ccccc32)o1,x,-3%,x,x,-11,
Cc1cc(C)cc(NC(=S)NCC2CCCO2)c1 (centres undefined),-8,2%,-1.3,0,3,
CC(CCc1ccccc1)NC(=O)COC(=O)c1ccc([N+](=O)[O-])cc1 (centres undefined),x,x,0.4,13,x,
CCc1ccc(C(=O)COc2ccc(NC(C)=O)cc2)cc1,6,-9%,-0.5,7,0,
CCO[C@@H]1OC(C(N)=O)=C[C@H](c2coc3ccccc3c2=O)[C@H]1CCCO,x,-9%,-1.5,-5,x,
CC(=O)Nc1ccc(C(=O)CSc2nnc(-c3ccc(O)cc3)n2CC2CCCO2)cc1 (centres undefined),-14,3%,-1.7,1,6,
CNC(=S)N1N=C(c2ccc(C)cc2)CC1c1ccc(OC)cc1 (centres undefined),-31,3%,12,31,5,
O=C(CSc1nnc2ccc(-c3ccc(Br)cc3)nn12)NCC1CCCO1 (centres undefined),x,x,-2.7,-1,x,
Cc1ccc(C)c(NC(=S)N2C3CCCC2CC(NC(=O)C2CC2)C3)c1 (centres undefined),x,x,-1.2,-1,x,
Cc1ccc(/C=C/c2nnc(-c3ccc(C)cc3)o2)cc1,-29,-5%,1.0,6,16,
CC(C)Cc1nnc(NC(=O)Nc2ccccc2)s1,x,1%,0.2,7,3,
COC(=O)C(NC(=O)CN1C(=O)c2ccccc2C1=O)c1ccc(O)c(OC)c1 (centres undefined),x,x,0.1,-2,x,
O=C(O)c1ccccc1NS(=O)(=O)c1ccc2ccccc2c1,x,x,2.5,4,x,
COc1ccc(CNc2nc3c(c(=O)[nH]c(=O)n3C)n2CCCc2ccccc2)cc1,-40,-2%,1.3,-4,-6,

# Ordered by molar mass (ascending): some entries from above
SMILES,YopH inh,Mtb growth,RecA splice inh,Mtb betalactam,Arbovirus inh,others
Cc1ccc(/C=C/c2nnc(-c3ccc(C)cc3)o2)cc1,-29,-5%,1.0,6,16,
O=C(O)c1ccccc1NS(=O)(=O)c1ccc2ccccc2c1,x,x,2.5,4,x,
CNC(=S)N1N=C(c2ccc(C)cc2)CC1c1ccc(OC)cc1 (centres undefined),-31,3%,12,31,5,
COC(=O)C(NC(=O)CN1C(=O)c2ccccc2C1=O)c1ccc(O)c(OC)c1 (centres undefined),x,x,0.1,-2,x,
COc1ccc(CNc2nc3c(c(=O)[nH]c(=O)n3C)n2CCCc2ccccc2)cc1,-40,-2%,1.3,-4,-6,
O=C(CSc1nnc2ccc(-c3ccc(Br)cc3)nn12)NCC1CCCO1 (centres undefined),x,x,-2.7,-1,x,
CC(=O)Nc1ccc(C(=O)CSc2nnc(-c3ccc(O)cc3)n2CC2CCCO2)cc1 (centres undefined),-14,3%,-1.7,1,6,
